Compound activity (PubChem BioAssay)
PINK1 expr mod: changes PINK1 expression; Potency, µM (highest dose often 76.6 µM), inactives show at the top dose activation (PINK1 increase), actives largely listed as activators; PINK1 immunofluorescence, high-content cytometry, 24 h; actives 0.2% (n = 410,000); active = well fitted activation curve with a large enough effect; inconclusive = small, poorly fitted or top-dose-only effect; inactive = flat fitted curve, though single readings scatter; cell line not stated here;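 further: potency means the concentration at half of the fitted maximal effect; % of control where 0% means no effect; nearly all actives have a fitted effect of over 65% in size; a mitochondrial uncoupler was the plate control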
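Cells are seeded, rested 12 hours, then given compound at five concentrations or DMSO for 24 hours. After fixation, blocking and antibody staining, PINK1 amount and mitochondrial localization are scored; CCCP serves as control.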
TRPML1 ag: agonists of human TRPML1 channel; Q9GZU1; TRPML1-expressing cells, Ca2+ dye fluorescence, FDSS; host cell line not named in the record; reference of the full effect not given here; activation, % (no concentration beside the values); actives 0.12% (n = 410,000); AID 624414; in the data active = activation above about 50%; inconclusive = about 30% to 50%; inactive = below about 30%; further: 0% is about no effect; the text of the record puts the active cut at 80%
Target sequence (Q9GZU1 whole entry, looked up): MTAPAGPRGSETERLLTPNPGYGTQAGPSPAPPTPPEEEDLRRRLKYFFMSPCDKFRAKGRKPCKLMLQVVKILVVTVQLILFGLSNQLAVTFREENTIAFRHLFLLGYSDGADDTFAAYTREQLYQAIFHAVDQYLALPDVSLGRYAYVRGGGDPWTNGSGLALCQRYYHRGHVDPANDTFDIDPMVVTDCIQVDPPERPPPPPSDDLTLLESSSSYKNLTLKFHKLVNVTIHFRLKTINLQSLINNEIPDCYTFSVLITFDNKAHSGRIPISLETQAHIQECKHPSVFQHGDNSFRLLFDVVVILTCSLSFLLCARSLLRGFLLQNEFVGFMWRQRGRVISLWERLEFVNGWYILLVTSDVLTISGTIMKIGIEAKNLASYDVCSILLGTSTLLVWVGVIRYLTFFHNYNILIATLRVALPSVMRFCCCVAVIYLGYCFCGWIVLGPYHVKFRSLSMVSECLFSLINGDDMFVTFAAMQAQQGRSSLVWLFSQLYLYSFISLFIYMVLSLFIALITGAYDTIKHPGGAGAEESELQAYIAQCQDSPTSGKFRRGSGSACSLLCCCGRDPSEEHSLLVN
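In this qHTS format, compounds were pin-transferred onto Ca8-dye-loaded TRPML1-DL cells induced with Tet overnight, and intracellular Ca2+ fluorescence was recorded kinetically for 110 s after a 10 s baseline. A subsequent 4uM final 54-4 (EC80) addition followed by a second 110 s read served as the antagonist phase.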
CtBP-E1A blk: blocks the CtBP interaction with E1A; AlphaScreen GST-E1A/His-CtBP binding, 1536-well; hits give low values; control for the full effect not named in the record; activity change, % (test concentration not listed); actives 0.49% (n = 340,000); AID 651724; in the data active means activity change below about -65%; inconclusive means about -30% to -65%; inactive means above about -30%; further: on the % scale 0 is the no-effect control and ±100 the full control effect; compound concentration not given in the record
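AlphaScreen with 125 nM GST-E1A and 125 nM His-CtBP (5X stocks) in Tris pH 8.0, 300 mM NaCl, BSA, Tween 20, TCEP. Compounds preincubated 2 h at 37 deg C, then glutathione donor/nickel acceptor beads added for 1 h at 37 deg C in dark.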
Six1-Eya2 blk: Six1/Eya2 interaction inhibition; AlphaScreen GST-Six1/His-Eya2 binding, biochemical; hits give low values; control for the full effect not named in the record; activity change, % (concentration not given with the values); actives 0.56% (n = 360,000); in the data active = activity change below about -65%; inconclusive = about -30% to -65%; inactive = above about -30%; further: on the % scale 0 is the no-effect control and ±100 the full control effect
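AlphaScreen with GST-Six1 and His-Eya2 (5X mix: 250 nM and 500 nM), glutathione donor and nickel acceptor beads; buffer 50 mM Tris pH 8.0, 300 mM NaCl, 1 mM TCEP; 1 h at 37 C in the dark.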
D2 agonist: human D2 receptor agonism in beta-arrestin assay; P14416; DiscoveRx PathHunter D2 beta-arrestin, luminescence, 90 min; 100% = 57 uM dopamine signal; activation, % (concentration not given with the values); actives 0.084% (n = 360,000); in the data active = activation above about 40%; inconclusive = about 15% to 40%; inactive = below about 15%; further: compound concentration not given in the record; the text of the record calls up to 30% inactive
Target sequence (P14416 whole entry, looked up): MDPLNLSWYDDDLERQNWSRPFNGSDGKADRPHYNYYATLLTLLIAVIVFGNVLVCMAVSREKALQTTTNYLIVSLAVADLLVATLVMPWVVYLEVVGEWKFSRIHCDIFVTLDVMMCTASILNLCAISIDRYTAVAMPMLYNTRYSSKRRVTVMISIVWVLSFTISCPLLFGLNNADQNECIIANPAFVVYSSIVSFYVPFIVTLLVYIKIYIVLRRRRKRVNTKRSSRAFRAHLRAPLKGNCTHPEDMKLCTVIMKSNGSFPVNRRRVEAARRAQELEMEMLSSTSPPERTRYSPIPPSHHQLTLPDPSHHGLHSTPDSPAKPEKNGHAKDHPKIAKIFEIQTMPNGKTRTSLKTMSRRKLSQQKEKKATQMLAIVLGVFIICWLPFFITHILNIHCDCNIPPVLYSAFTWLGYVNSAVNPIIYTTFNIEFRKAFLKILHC
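DiscoveRx PathHunter D2 beta-arrestin cells (2,100/well) attached overnight, then compound-stimulated 90 min at 37 C in HBSS/10 mM HEPES/0.1% Tween-20 buffer; beta-galactosidase complementation read by luminescence after 1 h at ambient temperature. Dopamine 57 uM final (EC100) as control.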
TRPML1 blocker: blocks the human TRPML1 channel. TRPML1-inducible cells, Ca2+ dye fluorescence, FDSS; hits give low values; inhibition of EC80 agonist-evoked calcium signal. activity change, negative = inhibition, % (no concentration beside the values). Q9GZU1. actives 0.02% (n = 390,000); in the data active means activity change below about -50%; inconclusive means about -30% to -50%; inactive means above about -30%;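 further: stimulus is agonist 54-4 at its EC80 concentration; on the % scale 0 is the no-effect control and ±100 the full control effect; compound concentration not given in the record; the text of the record puts the active cut at -80%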
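Tet-induced TRPML1-DL cells loaded with Ca8 no-wash calcium dye were read kinetically on FDSS. Compound addition was followed by EC80 agonist 54-4 (4 uM final); inhibition was read over 110 s.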
An asterisk follows results filed as active; ? = inconclusive; / = not tested or not shown; & = joins results of further samples; [ ] = another dose, or the depositor's remark.

cpd	molecule	TRPML1 ag	Six1-Eya2 blk	D2 agonist	CtBP-E1A blk	PINK1 expr mod	TRPML1 blocker
1	COc1ccc(C2C(C(=O)OCC3CCCO3)=C(C)NC3=C2C(=O)CC(c2ccco2)C3)cc1O (stereo not drawn)	0.1	-4	-2.6	-10	1.2%	37
2	Cc1ccc(C(=O)Nc2ccccc2C(N)=O)o1	-0.3	-1	-1.9	-6	-11%[38.3 µM]	-13
3	Cc1nc(SCc2cccc(Oc3ccccc3)c2)n[nH]1	0.3	2	-1.8	8	-0.3%	5
4	Cc1ccccc1OCC(=O)NC(Cc1c[nH]c2ccccc12)C(=O)O (stereo not drawn)	-0.6	12	3.5	1	1.4%	6
5	COc1ccccc1Cc1c(C(C)(C)C)nc2c3ccccc3ccn12	-0.2	-2	-10	3	?	7
6	O=C(COC(=O)c1ccco1)c1ccc(Cl)cc1	1.7	-6	-6.1	0	0.2%	-10
7	Cc1cc(C)c(NC(=O)CCCN2CCN(C)CC2)c(C)c1	0.7	5	-9.1	7	-1.9%	54
8	CCOc1ccccc1NC(=O)CCNC(=O)c1ccco1	-0.4	-2	2.2	6	0.8%	-14
9	C[C@H]1CN=C(Nc2ccccc2)N1CC1CCCCCC1	0.4	0	-2.8	6	-0.6%	4
10	COC(=O)c1ccccc1NC(=O)NCc1ccccn1	0.1	1	-3.6	-2	2.1%	6
11	CC(=O)Nc1c(O)nc(SCC(=O)N2CCCCC2)[nH]c1=O	1.8	8	1.0	-11	0.0%	3
12	Cc1[nH]nc(N)c1-c1ccccc1	0.7	4	0.8	/	-2.4%	-2
13	O=C1CC(N2CCCN(C3CC(=O)N(c4ccc(F)cc4)C3=O)CC2)C(=O)N1c1ccc(F)cc1 (stereo not drawn)	-0.4	8	-1.1	0	-2.4%	-13
14	CCOc1ccc2c(c1)/C(=C(\C(Cl)=C(Cl)Cl)[N+](=O)[O-])N2	3.2	0	-1.3	-18	-0.3%	-2
15	Cc1cc(C)c2c(n1)SCC(=O)N2CC(=O)Nc1ccc(Br)c(C)c1	0.1	9	-4.1	/	3.5%	17
16	COC(=O)C1=C(C)NC(C)=C(C(=O)OC)C1C(=O)OCC(=O)N1c2ccccc2CC1C (stereo not drawn)	-1.1&-0.5	-3&2	4.1&-2.2	2&-3	-0.7%&0.9%	-1&0
17	O=[N+]([O-])c1ccc(/C=[N+](\[O-])[C@@H]2CCCC[C@@H]2/[N+]([O-])=C/c2ccc([N+](=O)[O-])o2)o1	-0.8	4	2.1	4	1.4%	2
18	COc1ccc(OCC(=O)NC(=S)Nc2ccccc2F)cc1	-0.8	4	2.7	/	8.6%	6
19	COc1ccccc1C(=O)NC(C)c1ccc(-n2ccnc2)cc1 (stereo not drawn)	0.9	-4	-3.0	-1	-0.2%	7
20	COC(=O)C1CCN(Cc2c(C(=O)N3C[C@@H](C)O[C@@H](C)C3)nc3ccc(Cl)cn23)CC1	1.0	5	6.0	-12	-0.4%	-2
21	CC1Oc2ccccc2C=C1/C=N/NC(=O)c1ccccc1O (stereo not drawn)	0.1	-16	-3.6	-3	?	28
22	CC(=O)N/N=C\c1cccc(OC/C=C/c2ccccc2)c1	2.2	-3	-2.0	4	3.4%	26
23	CC1(C)CC2CC(C)(CN2C(=O)COC(=O)c2ccc(Cl)cc2N)C1 (stereo not drawn)	1.2	15	-1.1	-2	3.8%	3
24	CN(CC(=O)Nc1ccccc1Br)CC(=O)Nc1ccccc1-c1ccccc1	1.2	-3	1.3	-3	-0.8%	-3
25	S=C(Nc1ccc(Cl)cc1Cl)Nc1ccccc1Oc1ccccc1	2.0	-7	-7.8	-2	1.4%	-9
26	CC1OC(Nc2ccc(N=Nc3ccccc3)cc2)C(O)C(O)C1O (stereo not drawn)	0.0	-5	-5.2	-11	12%	-2
27	Cc1ccc(CC(=O)Nc2cccc(C(=O)Nc3c(C)n(C)n(-c4ccccc4)c3=O)c2)cc1C	-0.8	2	-3.9	3	-0.5%	-4
28	COc1ccc(/C=C2\NC(=S)N(CC3CCCO3)C2=O)c(OC)c1C (stereo not drawn)	1.5	-8	0.9	6	-4.1%[38.3 µM]	-15
29	Cc1ccccc1N(CC(=O)N/N=C/c1cc(Br)c(C)o1)S(C)(=O)=O	-0.9	-16	-9.1	-15	1.3%	-11
30	CCOC(=O)c1c(NC(=O)COC(=O)c2ccccn2)sc(C)c1C	-0.3	-1	0.2	3	-1.0%	10
31	COc1ccc(OC)c2c1sc(=NC(=O)C1CCCCC1)n2C	0.4	9	-2.6	1	1.5%	-3
32	CC(C)(C)N(Cc1ccccc1)C(=O)c1ccc(Cl)cc1[N+](=O)[O-]	2.1	-11	4.1	-15	1.9%	-12
33	Clc1ccc(-c2[nH]ncc2N=Nc2ccccc2)cc1	1.9	-26	-0.2	/	12%	-2
34	C=CCn1c(=O)/c(=C/c2ccc(Cl)cc2)s/c1=C(/C#N)c1nnc2n1CCCCC2	-0.5	-4	-3.1	12	/	0
35	COC(=O)c1cc(S(=O)(=O)N2CCCC2)c(Cl)cc1Cl	0.2	5	5.8	-4	2.9%	5
36	CCOC(=O)c1c(C)sc(-c2c(-c3cc(C)ccc3C)[nH]c3c2c(=O)[nH]c(=O)n3C)c1O	2.9	/	/	/	14%	48
37	O=C(C/C(=N/O)c1ccccc1O)C(F)F	0.1	-8	-3.7	-10	0.6%	6
38	O=C(c1ccccc1)c1ccc(OCCCCN2CCCCC2)cc1	0.2	20	-2.0	20	-1.1%	-7
39	COc1cc(C)ccc1S(=O)(=O)NC(=O)C1(C)CCN1C(=O)Cc1ccccc1Cl (stereo not drawn)	-0.4	0	-4.6	10	1.6%	/
40	COC(=O)c1c(C)sc(-c2c(-c3ccc4c(c3)OCCO4)[nH]c3c2c(=O)n(C)c(=O)n3C)c1O	2.8	/	/	/	15%	-7
41	CN1CCN(C(=O)C2CCCN(S(=O)(=O)c3ccc(Br)cc3)C2)CC1 (stereo not drawn)	-0.1	10	-3.5	2	1.7%	7
42	CC(C)(C)c1ccc(C(=O)N2CCN(Cc3cc(=O)n4nc(-c5ccccc5F)sc4n3)CC2)cc1	0.0	/	/	/	-0.4%	24
43	CCN(CC)c1ccc(CNCCCSc2nnnn2C)cc1	-0.5	/	/	/	-0.9%	4
44	O=C1CCC(C(=O)N2CCN(c3cnccn3)CC2)CN1CCc1cccc(F)c1 (stereo not drawn)	2.5	0	0.9	4	1.7%	16
45	Cc1cc(C=C(C#N)C#N)c(C)n1-c1ccccc1	0.5	3	1.1	15	0.7%	7
46	COc1cccc(CNc2ccc([N+](=O)[O-])cc2Cl)c1O	4.3	-15	-7.4	/	-1.7%	20
47	CCN(c1ccccc1C)S(=O)(=O)c1nnc(NC(=O)c2ccco2)s1	-0.2&1.3	-4	-0.4	1	-0.9%&1.8%	19&33
48	COc1ccc(C(=O)OCC(=O)NC2CCCC2)c(OC)c1	-0.3	9	0.8	/	0.1%	8

Rewritten screen by screen: part of the list above
[35] COC(=O)c1cc(S(=O)(=O)N2CCCC2)c(Cl)cc1Cl
[36] CCOC(=O)c1c(C)sc(-c2c(-c3cc(C)ccc3C)[nH]c3c2c(=O)[nH]c(=O)n3C)c1O
[37] O=C(C/C(=N/O)c1ccccc1O)C(F)F
[38] O=C(c1ccccc1)c1ccc(OCCCCN2CCCCC2)cc1
[39] COc1cc(C)ccc1S(=O)(=O)NC(=O)C1(C)CCN1C(=O)Cc1ccccc1Cl (stereo not drawn)
[40] COC(=O)c1c(C)sc(-c2c(-c3ccc4c(c3)OCCO4)[nH]c3c2c(=O)n(C)c(=O)n3C)c1O
[41] CN1CCN(C(=O)C2CCCN(S(=O)(=O)c3ccc(Br)cc3)C2)CC1 (stereo not drawn)
[42] CC(C)(C)c1ccc(C(=O)N2CCN(Cc3cc(=O)n4nc(-c5ccccc5F)sc4n3)CC2)cc1
[43] CCN(CC)c1ccc(CNCCCSc2nnnn2C)cc1
[44] O=C1CCC(C(=O)N2CCN(c3cnccn3)CC2)CN1CCc1cccc(F)c1 (stereo not drawn)

| Screen / compound no. | 35 | 36 | 37 | 38 | 39 | 40 | 41 | 42 | 43 | 44 |
| --- | --- | --- | --- | --- | --- | --- | --- | --- | --- | --- |
| TRPML1 ag | 0.2 | 2.9 | 0.1 | 0.2 | -0.4 | 2.8 | -0.1 | 0.0 | -0.5 | 2.5 |
| Six1-Eya2 blk | 5 | / | -8 | 20 | 0 | / | 10 | / | / | 0 |
| D2 agonist | 5.8 | / | -3.7 | -2.0 | -4.6 | / | -3.5 | / | / | 0.9 |
| CtBP-E1A blk | -4 | / | -10 | 20 | 10 | / | 2 | / | / | 4 |
| PINK1 expr mod | 2.9% | 14% | 0.6% | -1.1% | 1.6% | 15% | 1.7% | -0.4% | -0.9% | 1.7% |
| TRPML1 blocker | 5 | 48 | 6 | -7 | / | -7 | 7 | 24 | 4 | 16 |

[45] Cc1cc(C=C(C#N)C#N)c(C)n1-c1ccccc1
[46] COc1cccc(CNc2ccc([N+](=O)[O-])cc2Cl)c1O
[47] CCN(c1ccccc1C)S(=O)(=O)c1nnc(NC(=O)c2ccco2)s1
[48] COc1ccc(C(=O)OCC(=O)NC2CCCC2)c(OC)c1

| Screen / compound no. | 45 | 46 | 47 | 48 |
| --- | --- | --- | --- | --- |
| TRPML1 ag | 0.5 | 4.3 | -0.2&1.3 | -0.3 |
| Six1-Eya2 blk | 3 | -15 | -4 | 9 |
| D2 agonist | 1.1 | -7.4 | -0.4 | 0.8 |
| CtBP-E1A blk | 15 | / | 1 | / |
| PINK1 expr mod | 0.7% | -1.7% | -0.9%&1.8% | 0.1% |
| TRPML1 blocker | 7 | 20 | 19&33 | 8 |

Later entries
cpd	molecule	TRPML1 ag	Six1-Eya2 blk	D2 agonist	CtBP-E1A blk	PINK1 expr mod	TRPML1 blocker
49	COCCN1CCn2c(nc3cc(NC(=O)Cn4nc(C)c5ccccc5c4=O)ccc32)C1	-0.2	-2	0.3	0	2.2%	-2
50	COc1ccc(NC(=S)NCCc2ccc(S(N)(=O)=O)cc2)c(OC)c1	-0.7	8	-3.7	/	1.9%	4
51	COc1ccc(-c2csc(C(O)c3ccc(F)cc3)n2)cc1OC (stereo not drawn)	-0.2	6	-0.5	-20	1.1%	/
52	CNc1nn(-c2cccc(Cl)c2)nc1N	-0.8	-21	-1.1	-9	-0.1%	-7
53	CC1CCN(C(=O)CNC(=O)CNS(=O)(=O)c2ccccc2)CC1	/	1	0.4	/	-1.1%	/
54	Cc1cccc(-n2c(CNC(=O)Cc3ccccc3)n[nH]c2=S)c1	-0.7	-1	0.5	-9	1.9%	3
55	CCNc1nc2[nH]c(=O)c3c(c2s1)OC(N)=C(C#N)C3c1ccc(C)cc1 (stereo not drawn)	4.0	-3	1.6	-2	0.5%	22
56	Nc1nc(COc2ccccc2)cs1	-0.5	1	0.0	0	7.8%[38.3 µM]	-9
